Assay outcomes deposited in PubChem BioAssay by National Center for Advancing Translational Sciences (NCATS).
VDR inh: vitamin D3 receptor (human) inhibition; P11473; AID 504847; Potency, µM, without a hit: max response, negative = inhibition, most hits filed as inhibitors; 400,000 tested, 0.93% active; VDR-SRC2-3 peptide fluorescence polarization, 2 h; active = well fitted inhibition curve with a large enough effect; inconclusive = small, poorly fitted or top-dose-only effect, or another doubt; inactive = no such curve, though single readings can be large or run the other way; also: series mostly up to about 120 µM
Target sequence (P11473 whole entry, looked up): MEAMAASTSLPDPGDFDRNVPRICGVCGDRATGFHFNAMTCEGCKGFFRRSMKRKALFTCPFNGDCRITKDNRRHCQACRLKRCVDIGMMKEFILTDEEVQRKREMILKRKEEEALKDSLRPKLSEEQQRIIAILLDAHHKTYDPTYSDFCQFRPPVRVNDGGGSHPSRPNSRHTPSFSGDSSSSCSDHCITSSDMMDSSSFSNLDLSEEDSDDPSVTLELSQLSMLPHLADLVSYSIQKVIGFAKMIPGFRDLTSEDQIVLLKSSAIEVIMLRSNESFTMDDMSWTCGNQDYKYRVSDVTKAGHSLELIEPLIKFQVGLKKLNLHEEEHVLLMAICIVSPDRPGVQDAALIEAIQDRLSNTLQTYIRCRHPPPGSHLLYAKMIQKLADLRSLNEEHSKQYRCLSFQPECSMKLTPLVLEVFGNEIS
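Reagent solutions, kept cold and dark, are dispensed first; compounds are then pinned in at 23 nl, plates briefly spun, and incubated 2 h at ambient temperature. Inhibition of VDR–SRC2-3 peptide binding is read by fluorescence polarization.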
* hit, by the source's call; ? = inconclusive. % is scaled to controls: 0 for no effect and ±100 for the full control effect; potency is read from the fitted curve at half-maximal effect.

canonical_smiles | VDR inh
C=C1CCN([C@@H](C)C(=O)NCCCCCC)S(=O)(=O)c2ccccc21 | -11%
O=C(COC(=O)c1ccc(Br)o1)NCC1CCCO1 (stereo not drawn) | -1%
CCOC(=O)N1CCC2CC1c1cc(Cl)ccc12 (stereo not drawn) | -8%
O=C(N/N=C/c1ccc(-c2cccc([N+](=O)[O-])c2)o1)c1ccc([N+](=O)[O-])cc1 | -6%
CC(C)(O)C#Cc1ccc(CN2CCN(Cc3ccccc3)C(CCO)C2)s1 (stereo not drawn) | 10%
CCOc1cccc(NC(=O)c2sc3nc(-c4ccc(F)cc4)ccc3c2N)c1 | ?
CCOc1ccc(N(CC(=O)NCCc2ccccc2)C(=O)CCC(=O)Nc2nccs2)cc1 | -2%
CCn1c(Nc2ccccc2Cl)nc2ccccc21 | -1%
O=C(NCCc1ccc(F)cc1)C(=O)NCC(c1ccco1)S(=O)(=O)c1cccs1 (stereo not drawn) | 10%
O=C(Nc1ccc(Oc2ccc(NC(=O)C3CCCO3)cc2)cc1)C1CCCO1 (stereo not drawn) | -13%
O=C(O)CCNS(=O)(=O)c1ccccc1C(F)(F)F | -9%
Cc1onc(-c2c(Cl)cccc2Cl)c1C(=O)N1C=CC(C(F)(F)F)=NCC1 | -3%
O=C(Cc1ccccc1[N+](=O)[O-])OCC(=O)c1ccccc1Br | -7%
O=C(NC(Cc1ccccc1)C(=O)O)c1ccc(S(=O)(=O)N2CCCCC2)cc1 (stereo not drawn) | -15%
Cc1nc(N2CCC(C(N)=O)CC2)c2nnn(Cc3ccccc3)c2n1 | 15%
CCOC(=O)c1c(NC(=O)c2ccc(S(=O)(=O)N(C)CC3CCCO3)cc2)sc2c1CCN(C)C2 (stereo not drawn) | 1%
O=C(c1ccc2c(c1)OCO2)N1CCC(Cc2ccccc2)CC1 | -18%
Cc1cccc(C)c1NC(=O)Cn1c(=O)n(CCC(=O)NCc2ccc3c(c2)OCO3)c(=O)c2sccc21 | 7%
O=C(NC1CC1)c1ccc(S(=O)(=O)NC2CCCCCC2)cc1 | 7%
O=[N+]([O-])c1ccc(CN2CCOCCOCCOCC2)cc1 | ?
CN1CCN(C(=O)C2=C[C@@H](c3ccc4c(c3)OCO4)C[C@@H](OCc3ccc(CO)cc3)O2)CC1 | 7%
COc1ccc(COCC(O)CN2CCC(C(N)=O)CC2)cc1 (stereo not drawn) | -14%
COc1ccccc1C(C)NC(=O)c1ccc(S(=O)(=O)NCc2ccco2)cc1 (stereo not drawn) | -20%
O=C(O)c1ccccc1NC(=O)C(Cc1ccccc1)N1C(=O)c2ccccc2C1=O (stereo not drawn) | -6%
COc1ccc(N(C)S(=O)(=O)c2cccc(C(=O)N3CCN(Cc4ccc5c(c4)OCO5)CC3)c2)cc1 | ?
CC(=O)C(C(C)=O)c1c(Cl)c(O)c(O)c2c(C(=O)c3ccccc3)coc12 | ?
COC(=O)C(CCSC)NC(=O)C1CCN(c2ncnc3c2nc2n3CCCCC2)CC1 (stereo not drawn) | 16%
C[C@@H]1CN([C@H](C)CO)C(=O)c2cccc(NC(=O)Nc3ccc(F)cc3)c2O[C@H]1CN(C)C(=O)Nc1ccc(C(F)(F)F)cc1 | -6%
CCCOC(=O)c1ccc(Oc2c(-c3ccc(O)cc3O)n[nH]c2C)cc1 | 0%
Cc1ccccc1NC(=O)NNC(=O)c1ccc2ccccc2c1 | -8%
O=C(NC1CCCCC1)NC1(C(=O)N2CCN3CCCC3C2)CCCCC1 (stereo not drawn) | 6%
Oc1ccc(N2CCN(C(c3ccccn3)c3nnnn3C3CCCC3)CC2)cc1 (stereo not drawn) | -2%
O=C1NN(c2ccccc2)C(=O)/C1=C\c1ccccc1OCC(=O)N1CCOCC1 | ?
Cc1ccc2nc(NC(=O)CSCc3ccccc3)sc2c1 | -5%
CC12C(=O)N(Cc3ccco3)C(=O)C1C1c3ccccc3C2c2ccccc21 (stereo not drawn) | -1%
CC1CCCN(C(=O)COc2ccc(Nc3ccccc3)cc2)C1 (stereo not drawn) | -3%
CCN1CCN(Cc2ccc(NC(=O)c3ccc(C)c(NC(=O)c4ccnnc4)c3)cc2C(F)(F)F)CC1 | -10%
Cc1ccccc1NC(=O)CN1C(=O)c2cccnc2Oc2ccc(Cl)cc21 | 1%
Cn1c(CSCc2ccc(F)cc2)nnc1SCC(=O)Nc1cccc(C(=O)O)c1 | -9%
O=c1[nH]c(NCCO)nnc1Cc1ccc(Cl)cc1 | 5%
CCn1c(CSc2nc(C)cc(C)n2)nnc1SCC(N)=O | 0%
COc1cc2c(cc1OC)C(C)N(C(=O)/C=C/c1cc(OC)c(OC)c(OC)c1)CC2 (stereo not drawn) | 7%
CC(=O)CC(=O)NC(=NC1CCCCC1)Nc1nc(C)cc(C)n1 | 1%
O=C(CNC(=O)c1cccc(F)c1)OCC(=O)N1CCCc2ccccc21 | -2%
CCOC(=O)c1c(NC(=O)c2cc(-c3ccc(Br)cc3)on2)sc(C)c1C | 79µM*

As a working copy, some entries already given.
canonical_smiles | VDR inh
O=C(NC1CCCCC1)NC1(C(=O)N2CCN3CCCC3C2)CCCCC1 (stereo not drawn) | 6%
Oc1ccc(N2CCN(C(c3ccccn3)c3nnnn3C3CCCC3)CC2)cc1 (stereo not drawn) | -2%

Next section:
canonical_smiles | VDR inh
O=C(NCc1ccco1)C(c1ccc(F)cc1)N(C(=O)Cc1cccs1)c1cccnc1 (stereo not drawn) | -2%
Cc1ccc(CN2CCN(/N=C/c3cccnc3)CC2)cc1 | -9%
Cn1c(SCC(=O)NC2CCCC2)nc2c(c1=O)SCC2 | 5%
Cc1ccccc1/C=C1\Oc2ccccc2C1=O | -12%
Cc1cc(NC(=O)c2cc(-c3ccccn3)nc3c(Cl)cccc23)no1 | -8%
O=C(c1ccc2c(=O)n3c(nc2c1)CCCCC3)N1CCN(c2ccc(Cl)cc2)CC1 | 4%
COCCNC(=O)C(OC(=O)c1ccco1)c1ccc(OC)cc1 (stereo not drawn) | 3%
Cc1ccc(C)c2[nH]c(=O)c(CN(Cc3cccs3)C(=S)NCc3ccco3)cc12 | -17%
Cc1onc(-c2ccccc2)c1C(=O)OCC(=O)NC(=O)c1ccccc1 | 1%
Cc1ccc(/C=N/NC(=O)C2(O)c3ccccc3-c3ccccc32)o1 | -7%
CCc1ccccc1Nc1sc(C(=O)c2ccccc2)c(N)c1S(=O)(=O)c1ccccc1 | 0%
O=C(Cc1ccccc1)NC(Nc1cccc2ccccc12)C(Cl)(Cl)Cl (stereo not drawn) | -7%
Cc1cccn2c(=O)c3cc(C(=O)NCCCN4CCCC4=O)n(C)c3nc12 | 0%
COc1ccc(NC(=O)c2cc3ccccc3cc2OC)cc1 | ?
Cc1ccc(C(=O)NC2CCS(=O)(=O)C2)cc1S(=O)(=O)N1CCOCC1 (stereo not drawn) | -7%

Next part.
SMILES,VDR inh
O=C(CC1(O)C(=O)N(CCc2ccccc2)c2ccc(Br)cc21)c1ccccc1O (stereo not drawn),?
COc1ccc(OC)c(C2C3CN(C(C)C)CC=C3C(C#N)=C(N)C2(C#N)C#N)c1 (stereo not drawn),-1%
COc1ccc(CN(Cc2ccccc2)C(=O)c2ccc(NC(C)=O)cc2)cc1COc1ccc(NC(C)=O)cc1,8%
O=C(CC1NCCN(Cc2ccccc2)C1=O)Nc1ccc(Cl)cc1 (stereo not drawn),18%
CN1CCN(C(=O)CCc2nc3ccccc3n2-c2ccccc2)CC1,10%
CCOC(=O)Cc1nnc(NC(=O)CSc2nnc3c4ccccc4n(C)c3n2)s1,0%
Oc1ccc(C[C@H]2CNC(=S)N2CC2CCCN2C[C@H](Cc2ccccc2)N2C[C@H](Cc3ccc(O)cc3)N(CC3CCCCCC3)C2=S)cc1 (stereo partly drawn),-6%
CC1=NS(=O)(=O)NC(C)(C)C1,-22%
CN(Cc1ccccc1)C(=O)COC(=O)CCC(=O)c1ccc(Cl)cc1,-19%
CCN(CC)CCCNC(=O)c1ccc(Cn2c(SCc3ccccc3)nc3cccnc32)cc1,-2%
CCOc1ccc(NC(=O)CSc2ccc(-c3cccnc3)nn2)cc1,4%
Cc1cccc(N=c2c([N+](=O)[O-])nn(-c3ccc(Cl)cc3)n2O)c1,-18%
O=C(CSc1nnc(CNc2cccc(C(F)(F)F)c2)n1Cc1ccco1)NCc1ccco1,0%
CCOc1c(Cl)cc(C(=O)Nc2ccccc2C(=O)O)cc1Cl,18%
Nc1nnc(SCC(=O)Nc2ccc(Cl)c(C(=O)O)c2)s1,4%
O=C(NCc1ccc(-c2csnn2)cc1)C1CC1,7%
COc1ccc(NC(=O)COC(=O)CNS(=O)(=O)c2ccc(F)c(F)c2F)cc1OC,6%
CCOc1ccc(S(=O)(=O)N2CCCC(C(=O)NCc3ccncc3)C2)cc1Cl (stereo not drawn),16%
CCOC(=O)CCNCc1ccc(OC)c(OC)c1,?
COc1ccc(S(=O)(=O)N2CCN(C(=O)N3CCOCC3)C2C)cc1 (stereo not drawn),-12%
COCCn1c(=O)c(-c2ccccc2)nc2cnc(Oc3ccc(OC)cc3)nc21,-8%
CCOc1ccc(NS(=O)(=O)c2cc(C(=O)NCC3CCCO3)ccc2Cl)cc1 (stereo not drawn),3%
O=C(COc1ccccc1)Nc1nccs1,11%
N#Cc1ccccc1NC(=O)COC(=O)CN1C(=O)C2CCCCC2C1=O (stereo not drawn),10%
COc1ccc(CNC(=O)C2CCCN2C(=O)NCc2ccccc2)cc1 (stereo not drawn),-10%
O=C(Cn1c(=O)oc2cc(S(=O)(=O)N3CCCC3)ccc21)N1CCN(c2ccccc2)CC1,-5%
CCOC(=O)C1(Cc2ccc(Cl)cc2)CCN(Cc2cnc(N)nc2)CC1,-2%
O=C(O)C1CC=CCC1C(=O)Nc1ccccc1C(=O)N1CCN(c2ccccc2)CC1 (stereo not drawn),23%
Cc1cc2c(cc1S(=O)(=O)N1CCCC1)n(C)c(=O)c(=O)n2C,-15%
N#Cc1nnn(-c2ccc(Cl)cc2)c1N,-23%
Cc1noc(C)c1COc1ccc(C(=O)OCC(=O)N2CC3(C)CC2CC(C)(C)C3)cc1 (stereo not drawn),1%
C=CCc1cc(Cl)ccc1OCCCn1ccnc1,-17%
O=S(=O)(c1cccc(-c2cn3ccccc3n2)c1)N1CCCCC1,2%
Cc1ccc(S(=O)(=O)NN2C(=O)/C(=C/c3cccnc3)SC2=S)cc1,?
Cc1ccc(-c2cc(C(F)(F)F)c(C#N)c(SCC(=O)Nc3ccccc3)n2)cc1,-3%
CCOc1ccccc1C1C(C(N)=O)=C(C)Nc2nc(CCCO)nn21 (stereo not drawn),1%
Cc1ccc(Cn2ccc(NC(=O)c3nn(C)cc3Cl)n2)cc1,-16%
C/C(=N\O)C1CC(CC(=O)O)C1(C)C (stereo not drawn),-20%
COc1ccc2c(c1)c(/C=N/Nc1nc3ccccc3[nH]1)c(C)n2C,-6%
Cc1cc(C)c(O)c(-c2n[nH]c3c2C(c2cccc(O)c2)N(Cc2ccco2)C3=O)c1 (stereo not drawn),9%
Cc1ccc(-c2nc(CS(=O)CC(=O)NCCCN3CCN(Cc4ccccc4)CC3)c(C)o2)cc1 (stereo not drawn),-19%
O=C(CSc1nccn1Cc1ccc(Cl)cc1)NC1CCCC1,-13%
CC1CCC2(CC1)NC(=O)N(CC(=O)c1ccc3c(c1)OCO3)C2=O (stereo not drawn),-17%
COc1cc(/C(=C/c2ccccc2)c2ccccc2)c2c(c1)oc1ccccc12,-12%
Cn1cccc1Cc1nnc(SCC(=O)NCc2ccccc2)n1-c1ccc(F)cc1,-21%
COc1ccc(C2OCC3(O)C(c4ccc(OC)c(OC)c4)OCC23)cc1OC (stereo not drawn),15%
Cc1cc(C)c(C)c(S(=O)(=O)N2CCN(C(=S)NCC3CCCO3)CC2)c1C (stereo not drawn),-6%
Cc1nc(-c2ccc3c(c2)OCCO3)cs1,-2%

A portion taken from the entries so far, as a working copy:
SMILES,VDR inh
C=CCc1cc(Cl)ccc1OCCCn1ccnc1,-17%
O=S(=O)(c1cccc(-c2cn3ccccc3n2)c1)N1CCCCC1,2%
Cc1ccc(S(=O)(=O)NN2C(=O)/C(=C/c3cccnc3)SC2=S)cc1,?
Cc1ccc(-c2cc(C(F)(F)F)c(C#N)c(SCC(=O)Nc3ccccc3)n2)cc1,-3%
CCOc1ccccc1C1C(C(N)=O)=C(C)Nc2nc(CCCO)nn21 (stereo not drawn),1%
Cc1ccc(Cn2ccc(NC(=O)c3nn(C)cc3Cl)n2)cc1,-16%
C/C(=N\O)C1CC(CC(=O)O)C1(C)C (stereo not drawn),-20%
COc1ccc2c(c1)c(/C=N/Nc1nc3ccccc3[nH]1)c(C)n2C,-6%
Cc1cc(C)c(O)c(-c2n[nH]c3c2C(c2cccc(O)c2)N(Cc2ccco2)C3=O)c1 (stereo not drawn),9%
Cc1ccc(-c2nc(CS(=O)CC(=O)NCCCN3CCN(Cc4ccccc4)CC3)c(C)o2)cc1 (stereo not drawn),-19%
O=C(CSc1nccn1Cc1ccc(Cl)cc1)NC1CCCC1,-13%
CC1CCC2(CC1)NC(=O)N(CC(=O)c1ccc3c(c1)OCO3)C2=O (stereo not drawn),-17%
COc1cc(/C(=C/c2ccccc2)c2ccccc2)c2c(c1)oc1ccccc12,-12%
Cn1cccc1Cc1nnc(SCC(=O)NCc2ccccc2)n1-c1ccc(F)cc1,-21%

(more compounds)
SMILES,VDR inh
O=C(Nc1nc2ccccc2s1)C1CCN(C(=O)c2ccco2)CC1,-10%
O=C(c1ccco1)N1CCN(c2cccc(Cl)c2)CC1,19%
COc1ccc(NC(=O)c2cc(CC(C)C)on2)cc1OC,-8%
CCOc1ccccc1NC(=S)NC(=O)C1CCCCC1,4%
O=S(=O)(c1ccc(N2CCN(CCO)CC2)nc1)N1CCCCC1,25%
CN(C)c1nc(NCc2ccccc2)nc(Oc2ccc(=O)[nH]n2)n1,4%
CCc1ccc(N(CC(=O)Nc2ccc(NC(C)=O)cc2)S(=O)(=O)c2ccccc2)cc1,-2%
O=C(CO/N=C/c1ccc(OC(F)F)cc1)NCc1ccco1,10%
Cc1[nH]c2ccc(-c3nnc(SCC(=O)NCc4ccco4)n3Cc3ccccc3)cc2c1C,7%

This is a subset. The share of hits here may be higher or lower than overall.
